A1 inh = inhibitors of the anti-apoptotic protein A1, read as caspase activation | MEF A1-2A-BIM cells, Caspase-Glo 3/7 luminescence, 3 h; percent of clofoctol response, vehicle zero | caspase activation, % (test concentration not listed) | 330,000 compounds, 0.066% hits;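 active means over half of replicate activation scores above 10%, or exactly half above 10 with the replicate mean above 10; inconclusive means replicate mean below 10 yet half the replicates above 10; inactive means over half of replicates below 10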;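 further: wells of about 30 µL received 50 nL stock; many hits fall short of the cut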
Beta apoptosis = beta cell apoptosis inhibition; INS-1E cytokine-induced death, ATP luminescence, 48 h; percent of positive-control rescue, neutral wells zero; protection from apoptosis, % (no concentration beside the values); 300,000 compounds, 0.8% hits;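 active means all replicates at 75% or more, or half of them and the mean; inconclusive means half reach 75% but not the mean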;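 further: 0% = cytokine-treated negative control wells and 100% = positive control rescue; higher means more ATP so stronger rescue from cytokine killing; wells of about 40 µL received 100 nL stock; the first replicate is given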
T cruzi inh = blocks replication of Trypanosoma cruzi; T. cruzi beta-gal in NIH3T3, luminescence, 90 h; 300,000 compounds, 1.4% hits; inhibition, % (no concentration beside the values); AID 1885;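 active means mean inhibition across valid replicates above about 55%, limit read from the data; inconclusive means mean below that limit but half or more replicates reach it; inactive means mean below it, under half of replicates reach it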;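 further: signal also drops with host cell toxicity which is not excluded here; 0% = plate median of DMSO wells and 100% = zero luminescence signal; higher percent means less beta-gal luminescence so fewer parasites; stock transfer was 50 nL into about 50 µL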
ALR H2O2 inh = human ALR oxidase inhibition via reduced H2O2. purified ALR, DTT oxidation, H2O2 HRP-luminol luminescence. inhibition, % (no concentration beside the values). 290,000 compounds, 3.8% hits. AID 485317;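 active means mean and each replicate at 75% or more; inconclusive means only one of the two met; inactive means neither met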;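 further: stock transfer was 7.5 nL into about 7.5 µL; 0% = neutral wells and 100% = wells with inactivated enzyme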
Target sequence (P55789 whole entry, looked up): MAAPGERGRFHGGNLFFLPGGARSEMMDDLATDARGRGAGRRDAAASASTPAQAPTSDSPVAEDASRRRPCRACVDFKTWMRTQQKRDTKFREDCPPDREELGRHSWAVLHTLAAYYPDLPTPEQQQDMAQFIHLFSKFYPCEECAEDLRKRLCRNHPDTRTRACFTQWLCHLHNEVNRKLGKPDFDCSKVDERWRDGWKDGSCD
Beta2AR agonist = activates human beta-2 adrenergic receptor causing internalization; 340,000 compounds, 0.43% hits; response, % (no concentration beside the values); AID 504454; P07550; Am2.2-beta2AR cells, FAP receptor internalization, flow cytometry; reference of the scale not given here;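 active means response above a set limit, near 3 SD of response in nonfluorescent compounds, cut at about 42% in these data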;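 further: stock transfer was 100 nL into about 11 µL; a reference agonist was the positive control; negative values mostly stem from fluorescent compounds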
Target sequence (P07550 whole entry, looked up): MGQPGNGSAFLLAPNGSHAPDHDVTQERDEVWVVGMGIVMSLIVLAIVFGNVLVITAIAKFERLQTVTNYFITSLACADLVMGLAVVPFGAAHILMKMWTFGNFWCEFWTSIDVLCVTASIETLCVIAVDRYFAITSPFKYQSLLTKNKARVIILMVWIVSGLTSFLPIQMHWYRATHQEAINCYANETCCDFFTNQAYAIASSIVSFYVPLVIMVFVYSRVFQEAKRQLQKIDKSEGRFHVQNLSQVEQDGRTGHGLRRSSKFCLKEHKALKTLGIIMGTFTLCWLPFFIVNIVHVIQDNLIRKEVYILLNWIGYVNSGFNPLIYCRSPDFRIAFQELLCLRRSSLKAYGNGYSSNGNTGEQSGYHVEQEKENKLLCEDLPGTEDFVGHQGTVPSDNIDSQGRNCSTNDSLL
LANA-H2A inh = blocks KSHV LANA binding to histone H2A/H2B | AID 2629 | 320,000 compounds, 0.6% hits | inhibition, % (test concentration not listed) | cell-free LANA-H2A/H2B peptide, fluorescence polarization; in the data active means inhibition mostly above about 10%, no sharp cut-off; inactive means mostly below about 6.7%;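 further: stock transfer was 7.5 nL into about 10 µL; 0% = median of vehicle wells and 100% = median of positive control wells; one replicate is shown; the record names a cut of 25% in any replicate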
Calb FLC = affects C. albicans growth with fluconazole | C. albicans CaCi-2 (fluconazole-resistant clinical isolate) + fluconazole, Alamar Blue growth, 48 h | 300,000 compounds, 0.57% hits | growth inhibition, % (test concentration not listed) | AID 1979;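 active means most replicates above 75%; inconclusive means exactly half above 75%; inactive means most below 75%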;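 further: all wells also contain fluconazole at 8 µg/ml as a sub-toxic cotreatment; 0% = median of DMSO wells and 100% = median of geldanamycin control wells; wells of about 8 µL received 7.5 nL stock; the first replicate is given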
rRNA inh HTS = inhibitors of bacterial rRNA selective over humanized ribosomes | GFP signal change (wild-type ribosome), % (no concentration beside the values) | 350,000 compounds, 1.6% hits | E. coli WT GFP vs humanized-ribosome RFP mutants, fluorescence, 24 h; stronger effect = lower value; DMSO median 0, no signal -100 | AID 720706;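 active means significant combined selectivity score with lowered wild-type GFP, culture density cut under 30%, mutant RFP and density less affected; inactive means any of these conditions unmet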; further: one replicate is shown; some compounds called inactive have numbers as strong as hits
rRNA inh HTS OD600 = also measured in rRNA inh HTS; calls as there; OD600 change, %; measured here: OD600 growth;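 optical density of the mix in the first replicate; 0 = DMSO median and -100 = no signal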
rRNA inh HTS RFP = further read-out of rRNA inh HTS, marked with its call; RFP signal change, %; measured here: RFP humanized mutant strains;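 first replicate; 0 = DMSO median and -100 = no signal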
* hit, by the source's call; ? = inconclusive; / = not tested or not shown. This is a subset; count on the stated rates, not on these rows.

Values run as follows: A1 inh	Beta apoptosis	T cruzi inh	ALR H2O2 inh	Beta2AR agonist	LANA-H2A inh	Calb FLC	rRNA inh HTS	rRNA inh HTS OD600	rRNA inh HTS RFP
> COc1ccc(/C=C/C(=O)NNc2c(F)c(F)cc(F)c2F)cc1OC
  -0.7	0	-2	0	8	4.1	19	/	/	/
> O=C(O)c1ccccc1-c1ccccc1C(=O)NCc1ccccc1F
  0.5	/	-14	-1	3	0.8	-2	7	10	0.8
> COc1cccc(C(c2sc3nc(C)nn3c2O)N2CCc3ccccc3C2)c1 (stereo not drawn)
  -0.4	-3	0	1	-11	-0.3	-5	-4	-4	0.3
> CN(CC(=O)NCc1cccs1)S(=O)(=O)c1cccc2cccnc12
  0.1	-2	9	94*	2	1.8	0	7	10	0.2
> COc1ccc(CCNc2oc(-c3ccc(C)cc3)nc2C#N)cc1OC
  0.3	-1	2	32	2	-3.1	5	3	5	0.7
> NC(=O)C1CC(=O)N(c2ccc(OCC(=O)Nc3ccccc3F)cc2)C1 (stereo not drawn)
  0.1	1	/	-2	-7	/	/	3	9	-0.5
> Cc1ccc(S(=O)(=O)N2CCN(C(=O)N3CCOCC3)CC2)c(C)c1
  0.9	/	0	-10	-2	2.8	0	14	5	0.8
> CS(=O)(=O)c1ccc(-c2cccc(NC(=O)COc3ccc(Cl)cc3)c2)nn1
  0.2	-7	5	55	11	0.8	26	5	9	1.7
> O=C(NCc1ccco1)C1CCN(c2ccc(N3CCOCC3)nn2)CC1
  0.1	-4	-15	/	-1	2.8	1	16	16	1.0
> C[C@@H]1CC=C[C@H]2[C@H]1C(=O)N(Cc1ccccc1)[C@H]2c1cccc([N+](=O)[O-])c1
  -0.1	-21	15	1	3	1.3	3	-19	-26	-10
> Cn1c(=N)n(CC(O)c2cccs2)c2ccccc21 (stereo not drawn)
  0.3	-2	1	-8	-4	2.1	-11	10	10	-2.1
> O=C1NC(NS(=O)(=O)c2ccc(Cl)cc2)(C(F)(F)F)C(=O)N1c1ccccc1 (stereo not drawn)
  0.2	-1	-13	/	-2	-2.0	2	5	21	3.9
> CCCCN(C(=O)CSc1nc2ccccc2s1)c1c(N)n(CCCC)c(=O)[nH]c1=O
  -0.8	-4	/	99*	-10	4.4	/	/	/	/
> CC(=O)Nc1ccc2c(c1)C(=O)N(c1ccc(C)cc1)C2=O
  -0.8	-5	-5	-11	-16	2.9	13	/	/	/
> CC(NC(=O)Nc1cccc([N+](=O)[O-])c1)(C(F)(F)F)C(F)(F)F
  -0.8	37	21	-9	7	0.7	22	/	/	/
> COc1ccc(C(=O)COC(=O)CNS(=O)(=O)c2ccc(C)cc2)cc1
  3.1	-5	-8	-23	7	0.3	3	-6	-11	4.9
> CN(C)c1nc(NCc2ccccc2)nc(SCC(=O)Nc2ccccc2Cl)n1
  0.1	2	5	9	-5	4.1	-22	-6	-3	-6.8
> CCOC(=O)C1=C(C)OC(N)=C(C#N)C1C1CCCCC1 (stereo not drawn)
  1.0	3	-2	-12	1	1.2	-6	/	/	/
> COc1ccc(N2C(=O)C(CC(=O)Nc3ccc(Cl)cc3)N(NC(=O)c3cccc(F)c3)C2=S)cc1 (stereo not drawn)
  -0.4	3	-5	-5	10	-1.2	-3	-17*	0.5*	-0.2*
> C#Cc1cccc(NC(=O)c2ccc(Cl)cc2Cl)c1
  -7.1	2	-1	-5	-2	-2.7	-18	-25	-57	-0.9
> CC(=O)Nc1cc(Cl)c(N=Cc2ccc(O)cc2O)cc1Cl
  -0.3	-5	-6	2	14	0.0	-33	1	-3	-1.6
> Cc1cc(/C=N/NC(=O)c2ccccc2F)c(C)n1-c1ccccc1
  -2.5	1	8	-2	-5	-9.2	-16	-7	2	-0.4
> O=C(CNC(=O)c1ccccc1F)OCC(=O)N1CCCCC1
  0.3	-9	3	-2	0	-4.7	-2	20	3	1.7
> COc1ccc(C2C(C(=O)c3cccs3)=C(O)C(=O)N2CCN2CCOCC2)c(OC)c1 (stereo not drawn)
  0.4	/	0	-3	-1	-3.1	8	14	9	3.1
> N#Cc1ccccc1NC(=O)Nc1cccc(Cl)c1
  0.3	-1	-24	-2	-8	0.6	3	/	/	/
> COc1ccc(CNCCc2ccccc2)cc1OCC(N)=O
  0.5	5	?	-1	2	1.1	-14	/	/	/
> CC(C)CCN1C(=O)CCC1(C)C(=O)NC1CCCCCC1 (stereo not drawn)
  0.4	-1	-8	/	-3	-0.8	-35	0	4	2.7
> Cc1ccc(CNC(=O)c2c(-c3ccccc3)noc2C)cc1
  1.3	-3	2	-6	2	-3.3	-1	6	11	2.1
> Cn1nc(C(=O)OCC(=O)Nc2cc(Cl)ccc2C#N)c2ccccc2c1=O
  0.0	5	/	0	-3	6.1	/	26	15	0.7
> COc1cccc(-c2cc(CC3(O)CCN(CCCc4ccccc4)CC3)on2)c1
  0.4	/	24	/	-2	0.8	3	/	/	/
> CC1=C(C(=O)OC(C)C)C(c2ccc(C)o2)C(C(=O)OC(C)C)=C(C)N1
  0.5	-4	19	3	-5	0.6	2	-14	-22	-4.1
> CCOC(=O)C1CCN(C(=O)c2cccc(C(=O)N3CCC(C(=O)OCC)CC3)c2)CC1
  0.8	-2	8	-7	5	2.1	-1	5	1	-4.5
> Cc1cnc(C(=O)OCC(=O)Nc2cc(S(=O)(=O)N3CCOCC3)ccc2Cl)cn1
  0.0	-5	/	1	-5	3.3	/	3	7	-2.1
> COc1ccccc1C(=O)N/C(=C\c1cn(S(=O)(=O)N(C)C)c2ccccc12)C(=O)NCCCN1CCOCC1
  -0.7	-3	8	0	6	-1.4	7	-3	-6	2.2
> CCC(=O)OCC(=O)C1(OC(=O)CC)[C@H](C)C[C@H]2[C@H]3[C@H]([C@@H](O)C[C@@]21C)[C@@]1(C)C=CC(=O)C=C1C[C@H]3Cl (stereo partly drawn)
  1.0	/	/	-3	-1	-8.2	/	-5	-14	5.5
> COc1ccc(S(=O)(=O)N(Cc2cccs2)C2CCCC2)cc1
  0.4	-1	-11	99*	14	1.1	9	/	/	/
> O=C(CCN1C(=O)/C(=C/c2ccc(Cl)cc2)SC1=S)NCCCn1ccnc1
  0.9	-14	-8	-5	-21	2.1	-5	-7	4	21
> Cc1cc(C)cc(N(CC(=O)N2CCCCCC2)S(C)(=O)=O)c1
  0.2	-5	-4	-5	-3	-0.2	3	8	5	-0.2
> CCC(=O)NC(c1cccs1)c1ccc2cccnc2c1O (stereo not drawn)
  0.1	107*	78*	/	3	1.0	101*	-50	-74	-13
> Cc1cccc2c(=O)c(Br)c(C)n(Cc3ccccc3)c12
  -1.0	-2	-5	0	5	-0.9	-7	-6	0	-3.2
> CCC1=NN(C(=O)Cc2ccc([N+](=O)[O-])cc2)C(O)(c2ccncc2)C1 (stereo not drawn)
  -0.6	-3	-22	/	2	-1.2	-4	15	16	-0.8
> Cc1ccc(C2C3C(=O)N(c4ccccc4)C(=O)C3N3CCCN23)cc1 (stereo not drawn)
  -0.5	-10	-8	0	-3	3.3	-12	7	3	1.6
> S=c1[nH]ncn1/N=C/c1ccccc1
  -0.8	-2	-26	98*	-9	2.4	-25	/	/	/
> CC1=CC(C)(C)Nc2ccc(OC(=O)c3ccco3)cc21
  0.3	-20	36	29	12	-1.0	26	/	/	/
> N#Cc1ccc(N2CCc3ccccc3C2)c([N+](=O)[O-])c1
  0.1	2	12	/	2	/	-11	/	/	/
> Cc1cccc(NS(=O)(=O)c2ccc(C(=O)NCC(c3ccco3)N(C)C)cc2)c1C (stereo not drawn)
  -0.4	4	12	0	3	-2.3	-15	4	-7	-1.1
> O=S(=O)(c1ccccc1)N1N=C(c2ccc(O)cc2)CC1c1ccco1 (stereo not drawn)
  0.3	8	6	100*	27	-6.9	-10	-28	-32	-7.8
> Cc1ccc(CCSCC(=O)O)cn1
  0.5	/	-13	-14	3	-0.7	22	/	/	/
> CC(NC(=O)c1ccccc1NS(C)(=O)=O)c1ccccc1 (stereo not drawn)
  1.4	-4	-3	-3	6	0.6	1	/	/	/
> CCCN1CCC(N2CCN(c3cccc(C(F)(F)F)c3)CC2)CC1
  -0.2	-3	50	5	6	-2.4	-12	/	/	/
> O=C(N/N=C/c1cccnc1)C(O)(c1ccccc1)c1ccccc1
  1.8	-5	-3	-4	-2	2.0	15	/	/	/
> O=S1(=O)CCC(NC2CCCC2)C1 (stereo not drawn)
  0.1	-7	3	-8	-6	4.8	-5	9	14	0.2
> CCCNC(=O)CN1CCN(S(=O)(=O)c2ccc(Br)s2)CC1
  0.0	-12	/	/	-3	1.6	/	5	5	0.6
> CCOCCCNC(=O)Cn1cnc2c(cnn2-c2ccc(F)cc2)c1=O
  0.8	0	-1	-12	-7	2.8	1	13	10	2.2
> O=C(O)c1ccc(-c2nnn(Cc3cccc(C(F)(F)F)c3)n2)cc1
  -1.2	-9	-15	0	1	3.4	-2	-2	-3	5.1
> CCOC(=O)C(C(=O)c1ccccc1)C1CC(C)NC(=S)N1 (stereo not drawn)
  0.3	1	-13	64	-7	1.6	-3	/	/	/
> CS(=O)(=O)Nc1ccc2[nH]c(=O)[nH]c2c1
  -0.3	-4	-3	29	-4	6.5	-4	/	/	/
> CN(C)c1ccc(/C=C/C(=O)c2ccc(O)cc2)cc1[N+](=O)[O-]
  -0.1	-2	8	/	7	-4.3	12	-23*	-14*	5.3*
> CCc1ccc(C(=O)OCC(=O)N(CCOC)c2c(N)n(Cc3ccccc3)c(=O)[nH]c2=O)cc1
  -0.6	-4	-2	-23	-5	3.1	/	13	15	1.1
> O=C(/C=C/c1ccc([N+](=O)[O-])cc1)NCCSCc1ccco1
  -0.2	-2	8	98*	15	5.4	-23	/	/	/

(cont.)
Values run as follows: A1 inh	Beta apoptosis	T cruzi inh	ALR H2O2 inh	Beta2AR agonist	LANA-H2A inh	Calb FLC	rRNA inh HTS	rRNA inh HTS OD600	rRNA inh HTS RFP
> COC(=O)N/N=C\c1ccc(OC/C=C/c2ccccc2)c(OC)c1
  0.5	5	17	-9	-16	2.5	-20	-5	-9	-5.9
> CCc1cc(C(=O)N2CCCC(Nc3ccc(F)c(F)c3)C2)n(C)n1 (stereo not drawn)
  0.7	1	22	6	11	-8.6	5	2	3	-2.2
> O=C(NCc1ccco1)c1cccc2ccccc12
  -0.8	-3	-7	-11	-4	7.6	-27	/	/	/
> COc1ccccc1N1CCN(CCCCN2C(=O)c3ccccc3C2=O)CC1
  -0.2	/	-6	4	-11	4.5	-26	/	/	/
> O=S(=O)(NCCCCCCNS(=O)(=O)c1c(F)cccc1F)c1ccc2c(c1)OCCO2
  -0.6	2	/	-4	-3	0.5	/	-15	-22	11
> CC(CC(=O)N1CCc2ccccc21)n1cccn1 (stereo not drawn)
  -0.4	2	-3	-12	2	-3.1	-23	-1	-3	-3.3
> CCNC(=O)CSc1nc2cc(S(=O)(=O)Nc3ccc(OC)cc3)ccc2o1
  0.0	2	-4	-5	14	-7.1	23	4	-1	1.2
